# CBX7 inh: inhibitors of human CBX7 binding to H3K27me3 peptide. O95931. AlphaScreen His6-CBX7 / biotin-H3K27me3 peptide binding; active compounds read low. normalised signal (fraction of DMSO) (concentration not given with the values). 1.1% of 66,000 active. AID 1224903; in the data active means normalised signal below about 0.5;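 further: 100 nL library stock added to about 20 µL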
# Target sequence (O95931 whole entry, looked up): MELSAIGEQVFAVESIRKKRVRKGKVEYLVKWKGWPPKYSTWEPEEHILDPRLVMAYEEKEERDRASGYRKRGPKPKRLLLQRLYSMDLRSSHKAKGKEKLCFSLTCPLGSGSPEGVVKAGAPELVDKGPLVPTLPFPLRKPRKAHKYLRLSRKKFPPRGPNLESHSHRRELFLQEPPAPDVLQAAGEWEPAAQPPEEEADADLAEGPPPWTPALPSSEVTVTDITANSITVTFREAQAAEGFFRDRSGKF
# CBX7 inh z-score: further read-out of CBX7 inh, marked with its call; z-score; measured here: z-score of CBX7 signal; some inactives read as strong as hits; reference of the scale not given here;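 same signal on another scale; lower means less binding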
# Numbers without * were called inactive. Some of the compounds tested (hit frequency here may not be typical).
Compound | CBX7 inh | CBX7 inh z-score
CC1CCN(c2c(NCc3ccc(C(=O)Nc4cccnc4)cc3)c(=O)c2=O)CC1 | 1 | 0.017
Cc1cccc(-n2ccnc2SCC(=O)Nc2ccc(C)cc2C)c1 | 0.88 | -0.12
Cc1ccc(-n2nc(C)c3c(C)c(CCC(=O)NCc4cccc(Cl)c4)c(C)nc32)cc1 | 1.2 | 1.5
Cc1ccc(C(=O)c2cc(Br)ccc2NS(=O)(=O)c2ccc(C)cc2)cc1 | 0.77 | -4.8
Cc1ccc(NC(=O)C2=CCN(S(=O)(=O)c3ccc(F)cc3)CC2)c(Cl)c1 | 0.96 | -0.76
COc1ccc(CN(C(=O)c2ccc(Br)cc2)C2CCS(=O)(=O)C2)cc1 (configuration not stated) | 0.99 | -0.014
Cc1nc2c(-c3ccccc3)c(C)nn2c(C)c1CCC(=O)N1CCOCC1 | 1 | 1.4
COc1ccc(-c2noc(CCC(=O)NC(C)c3ccc4c(c3)OCCO4)n2)cc1 (configuration not stated) | 0.89 | -0.11
Cc1ccc(-c2nc(CS(=O)(=O)CC(=O)NCc3ccc4c(c3)OCO4)c(C)o2)cc1 | 1.1 | 0.27
Cc1ccc(C)c(NS(=O)(=O)c2ccc3c(c2)CCN3C(=O)C2CC2)c1 | 0.96 | -1.3
Cn1c(=O)c2c(ncn2CC(=O)Nc2ccc(OCc3ccccc3)cc2)n(C)c1=O | 0.99 | -0.15
COc1ccc(C(=O)N(Cc2ccc(C(C)C)cc2)C2CCS(=O)(=O)C2)cc1 (configuration not stated) | 0.92 | -0.08
Cn1c(SCC(=O)Nc2nc3ccccc3s2)nnc1-c1c[nH]c2ccccc12 | 0.98 | -0.42
Cc1nn(Cc2ccc(Cl)cc2)c(C)c1NC(=O)c1cc(-c2cccc(Cl)c2)on1 | 1 | 1.2
CCN(CC)CCNC(=O)CCn1nc(-c2ccc(Cl)cc2)ccc1=O | 1.1 | 2.2
CCOc1ccccc1NC(=O)CCc1nc2ccccc2[nH]1 | 0.97 | -0.37
CCc1ccc(N2CC(C(=O)NCc3ccc4c(c3)OCO4)CC2=O)cc1 (configuration not stated) | 0.91 | -1.5
COc1ccccc1Nc1cc(C(=O)NCc2ccc(F)cc2)c2ccccc2n1 | 1.3 | 5.4
CCC(C(=O)NCCCN1CCN(C)CC1)n1ncc2ccccc21 (configuration not stated) | 0.98 | -0.64
Cc1c(Cl)cccc1NC(=O)C1NC(=O)CC1c1ccccc1 (configuration not stated) | 0.98 | -0.26
O=C(Nc1ccc(Cl)cn1)c1ccc(Br)cc1 | 1.1 | 1.7
Cc1ccc2cc(CCNC(=O)c3ccc(C(F)(F)F)cc3)c(=O)[nH]c2c1C | 1 | 0.085
CCCN1CCN(C(=O)CN2C(=O)CC(C)(C)S(=O)(=O)c3ccccc32)CC1 | 1.1 | 2.3
COc1ccc(Nc2ncc(C(=O)Nc3ccc(Br)cc3C)c3ccccc23)cc1 | 0.97 | -0.62
CCC(C)NC(=O)c1cnc(N2CCN(CC)CC2)c2ccccc12 (configuration not stated) | 1.5 | 1
CC1CCc2nc(NC(=O)c3ccc(S(=O)(=O)N4CCCCC4)cc3)sc2C1 (configuration not stated) | 1 | 1.5
CCN(CCCNC(=O)Cn1nc(-c2ccc(C)cc2)ccc1=O)c1cccc(C)c1 | 0.67 | -15
CCOc1ccc2nc(C)cc(Nc3cccc(OC)c3)c2c1 | 1.1 | 0.97
COc1ccc(Cl)cc1-n1cc(-c2ccccc2)nc1SCC(=O)Nc1ccccc1C | 0.69 | -10
COc1ccccc1-c1cc2nc(C)c(CCC(=O)NCc3ccccn3)c(C)n2n1 | 1.1 | 1.3
FC(F)(F)c1nc2ccccc2nc1N1CCN(C2CCCCC2)CC1 | 0.93 | -2.2
Nc1ccc(S(=O)(=O)Nc2nccc(/C=C/c3cccc(Br)c3)n2)cc1 | 1.1 | 0.54
Cc1ccc(CN2C(=O)N(c3ccc(F)cc3)C(=O)C2CC(=O)Nc2ccccc2)cc1 (configuration not stated) | 1.1 | 4.2
CC(NC(=O)c1ccc2c(c1)NC(=O)c1ccccc1S2)c1ccccc1 (configuration not stated) | 0.98 | -0.64
O=C(Nc1cccc(O)c1)c1cnn2c1NC(c1ccco1)CC2C(F)(F)F (configuration not stated) | 1 | 0.33
CCOc1cc2c(cc1OCC)C(c1cc(OC)ccc1OC)CC(=O)N2 (configuration not stated) | 0.81 | -1.2

# Seven compounds from above, sorted by length of the SMILES, high to low:
Compound | CBX7 inh | CBX7 inh z-score
Cc1ccc(-c2nc(CS(=O)(=O)CC(=O)NCc3ccc4c(c3)OCO4)c(C)o2)cc1 | 1.1 | 0.27
Cc1nn(Cc2ccc(Cl)cc2)c(C)c1NC(=O)c1cc(-c2cccc(Cl)c2)on1 | 1 | 1.2
Cn1c(SCC(=O)Nc2nc3ccccc3s2)nnc1-c1c[nH]c2ccccc12 | 0.98 | -0.42
O=C(Nc1cccc(O)c1)c1cnn2c1NC(c1ccco1)CC2C(F)(F)F (configuration not stated) | 1 | 0.33
COc1ccccc1Nc1cc(C(=O)NCc2ccc(F)cc2)c2ccccc2n1 | 1.3 | 5.4
CCN(CC)CCNC(=O)CCn1nc(-c2ccc(Cl)cc2)ccc1=O | 1.1 | 2.2
CCC(C)NC(=O)c1cnc(N2CCN(CC)CC2)c2ccccc12 (configuration not stated) | 1.5 | 1

# Going on with the list:
Compound | CBX7 inh | CBX7 inh z-score
CCOc1ccccc1NC(=O)c1c(NCc2cccc(OC)c2OC)sc2c1CCC2 | 1 | -0.14
CCOc1ccc2nc(N3CCCC(C(=O)NC(C)CCc4ccccc4)C3)sc2c1 (configuration not stated) | 0.99 | -0.21
COc1ccc2sc(N3CCCC(C(=O)O)C3)nc2c1 (configuration not stated) | 1 | 1.1
Cc1ccc2cc(CCNC(=O)c3ccccc3C(F)(F)F)c(=O)[nH]c2c1C | 1.1 | 1.1
CC(C)Oc1ccc(N2CC(C(=O)Nc3ccc(F)cc3)CC2=O)cc1 (configuration not stated) | 1 | 0.026
COC(=O)c1sccc1NC(=O)c1cc2c(s1)-c1ccccc1OC2 | 1.5 | 6.3
CC(=O)N1CCc2cc(S(=O)(=O)N3CCN(c4cccc(C(F)(F)F)c4)CC3)ccc21 | 1.1 | 2.1
Cc1ccn2c(Nc3ccccc3C)c(-c3cccnc3)nc2c1 | 1 | 0.5
CCOC(=O)c1cc(-c2ccccc2)n(CCC(=O)Nc2cccc(F)c2)c1C | 0.98 | -0.41
N#Cc1c(NC(=O)c2cc(-c3ccc(O)cc3)on2)sc2c1CCC2 | 1 | 0.1
COc1cc(OC)cc(-c2cc3nc(C)c(CCC(=O)NCc4ccccc4Cl)c(C)n3n2)c1 | 1.1 | 2.8
CCOc1ccc(S(=O)(=O)c2cn(Cc3ccccc3Cl)c3ccc(OCC)cc3c2=O)cc1 | 0.88 | -4.7
COc1ccccc1-c1c(C)nn2c(NC(C)C)cc(C)nc12 | 0.85 | -1.6
Cc1ccc(-c2nc3ncccc3o2)cc1NC(=O)c1cc(I)ccc1I | 1 | 0.18
COc1ccc(Nc2nc(-c3ccncc3)nc3ccccc23)cc1 | 1 | 0.54
CN(CC(=O)O)S(=O)(=O)c1ccc2c(c1)NC(=O)CC(=O)N2 | 0.96 | -0.57
CCN(CCNC(=O)C1C2C=CC3(CN(Cc4ccccc4Cl)C(=O)C13)O2)c1ccccc1 (configuration not stated) | 1 | -0.05
Cc1ccc(S(=O)(=O)N2CCCC(C(=O)NCCc3ccc(Cl)cc3)C2)cc1 (configuration not stated) | 1 | 0.04
Cc1nc2c(C(=O)NCCC(C)C)cnn2c(C)c1Cc1cccc(Cl)c1 | 1 | 1.4
O=C(O)CC1(CC2=NS(=O)(=O)c3ccccc3N2)CCCC1 | 1.1 | 0.69
COc1nnc(-c2ccc(N3CCOCC3)c(NC(=O)COc3ccccc3)c2)c2ccccc12 | 0.9 | -2.3
COc1ccc(-c2cc(C(=O)Nc3ccc(S(N)(=O)=O)cc3)c3ccccc3n2)cc1OC | 1 | 0.72
CC1CCN(S(=O)(=O)c2ccc3c(c2)N(CC(=O)NC(C)CCc2ccccc2)C(=O)CO3)CC1 (configuration not stated) | 0.97 | -1.4
COc1ccc(C2=NOC(C(=O)NC(C)C)C2)cc1OC (configuration not stated) | 0.98 | -0.64

# Pulled one by one from the entries so far (3):
Compound | CBX7 inh | CBX7 inh z-score
CN(CC(=O)O)S(=O)(=O)c1ccc2c(c1)NC(=O)CC(=O)N2 | 0.96 | -0.57
COc1ccc(C2=NOC(C(=O)NC(C)C)C2)cc1OC (configuration not stated) | 0.98 | -0.64
O=C(O)CC1(CC2=NS(=O)(=O)c3ccccc3N2)CCCC1 | 1.1 | 0.69

# The list goes on.
Compound | CBX7 inh | CBX7 inh z-score
O=C(NC1CC1)c1nnc(Cc2ccc(F)cc2)o1 | 1.2 | 2.1
COCCCNc1ncnc2c1c(-c1ccccc1)cn2-c1ccc(F)cc1 | 1 | 0.21
CCOc1ccc(-n2ccnc2SCC(=O)Nc2cccc(C(F)(F)F)c2)cc1 | 0.84 | -1.2
CCOc1ccc(NC(=O)c2cc(-c3ccc(Cl)c(Cl)c3)nc3ccccc23)cc1 | 1.1 | 0.18
CCOC(=O)c1cnc2cc(C(F)(F)F)ccc2c1Nc1ccc(Br)cc1C | 1.1 | 1.3
CCCCn1c(CNC(=O)c2ccccc2OC)nc2ccccc21 | 1 | 0.37
COc1ccccc1C(=O)Nc1nnc(-c2ccccc2SCc2ccccc2)s1 | 1 | 0.14
CCC1=Nc2cc(C(=O)O)ccc2Sc2ccc(Cl)cc21 | 0.98 | -0.48
O=C(Cn1c(SCc2cccc(F)c2)nc2ccncc21)NCCC1=CCCCC1 | 0.95 | -1.3
COc1ccccc1-n1cnc2cc(C(=O)NCC3CCCO3)ccc21 (configuration not stated) | 1 | 0.024
CC(C)Oc1cc(-n2nc(-c3ccccc3)cc2-c2ccccc2)ncn1 | 1.2 | 1.9
CCOC(=O)CN1CC23C=CC(O2)C(C(=O)NCCc2ccccc2)C3C1=O (configuration not stated) | 1 | 1.2
Cc1ccc(Nc2cc(C)nc(NCc3ccccc3)n2)cc1 | 1.1 | 0.093
COc1ccc(NC(=O)C2c3cc(OC)c(OC)cc3C(=O)N(C)C2c2ccccc2F)cc1Cl (configuration not stated) | 1.1 | 1.7
COCCNC(=O)c1ccc2c(c1)N(Cc1cccc(F)c1)C(=O)c1ccccc1S2 | 1 | 0.48
COC(=O)c1ccc(Nc2nnc(C(C)(C)C)c(=O)[nH]2)cc1 | 1 | 0.18
CN(C)CCCNc1ncnc2ccc(Br)cc12 | 1.1 | 1
Cn1ccnc1SCC(=O)Nc1ccccn1 | 1.1 | 1.9
CCOCCCNC(=O)c1ccc2c(c1)ncn2C1CCCCC1 | 1.1 | 2.7
Cc1ccc(-c2noc(CCC(=O)NCCc3cccc(C)c3)n2)cc1 | 1 | 1.8
CCCCOc1ccc(N2C(=O)CC(NCCc3ccc(S(N)(=O)=O)cc3)C2=O)cc1 (configuration not stated) | 1.2 | 1.7
CCOc1ccc(CCNC(=O)c2ccc3c(c2)NC(=O)c2ccccc2S3)cc1 | 1.3 | 1.9
Fc1ccc(Nc2nc(SCc3ccncc3)nc3ccccc23)cc1 | 0.66 | -0.96
Cc1ccc(C)c(-n2c(Cc3cc(=O)[nH]c(=O)[nH]3)nnc2SCc2ccccc2)c1 | 0.79 | -0.44
Clc1ccc(-c2noc(Cc3ccccc3)n2)cc1 | 1.2 | 8.5
Cc1nc(Nc2nc3ccccc3s2)[nH]c(=O)c1Cc1ccccc1 | 0.88 | -1.6
Cc1cc(F)ccc1CNC(=O)CCC(=O)Nc1ccc2nc(N3CCCCC3)cc(C)c2c1 | 1.1 | 0.063
CCc1ccc(-c2nc(CN3CCCC(C(=O)NCc4cccs4)C3)c(C)o2)cc1 (configuration not stated) | 0.98 | -0.53
CN(CCc1ccccn1)c1ncnc2c1cnn2-c1ccc(Cl)cc1 | 1 | 0.34
CCN1CCN(CCCNC(=O)C2CCN(C(=O)c3cc4sccc4n3CC)CC2)CC1 | 1.1 | 0.27
Clc1ccccc1-c1nnc2sc(/C=C/c3ccccc3)nn12 | 0.98 | -0.71
Cc1cccn2cc(-c3cccc(S(=O)(=O)N4CCCCC4)c3)nc12 | 1 | 0.15
O=C(NCc1ccc(Cl)cc1)c1cc2ccccn2n1 | 1.3 | 2.5
Cc1nnc(Sc2cc(C(=O)NCCN(C)Cc3ccccc3)c3ccccc3n2)s1 | 1 | 0.2
CC(C(=O)N1CCCCCC1)C1Sc2ccccc2N(Cc2ccc(F)cc2Cl)C1=O (configuration not stated) | 1 | 0.95
COc1ccc(OC)c(NC(=O)c2sc3ncn(Cc4ccccc4F)c(=O)c3c2C)c1 | 1.1 | 0.63
CCOC(=O)N1CCN(c2c(NCc3ccc(Cl)cc3)c(=O)c2=O)CC1 | 0.98 | -0.37
Cc1ccc(OCC(O)CN2CCN(C)CC2)c(C)c1 (configuration not stated) | 1.2 | 3.1
CS(=O)(=O)N1CCC(C(=O)NCCc2ccccc2)CC1 | 1.1 | 3.2
CCC(=O)Nc1cccc(-c2cn3cccc(C)c3n2)c1 | 0.96 | -1.4
CCOC(=O)c1cnc2ccc(OC)cc2c1Nc1ccc(OCc2ccccc2Cl)cc1 | 0.76 | -1.1
CCC1=Nc2cc(C(=O)N(C)Cc3ccccc3)ccc2Sc2ccc(Cl)cc21 | 0.79 | -3
CCCC(=O)Nc1ccc(Cl)c(-c2nc3ncccc3o2)c1 | 1 | 0.053
Cc1nccn1-c1nc(-c2ccc(F)cc2)cc(C(F)(F)F)n1 | 1 | 0.49
CCCCN(CC)S(=O)(=O)c1ccc2[nH]c(=O)cc(C(=O)NCc3ccccc3)c2c1 | 1 | -0.049
COc1ccc(Cl)cc1NC(=O)CN1CCN(C)CC1 | 0.94 | -0.91
Cc1cccc(CCNC(=O)CCC(=O)Nc2ccc3nc(N4CCCCC4)cc(C)c3c2)c1 | 0.96 | -0.35
COc1ccc(C(=O)c2sc(N3CCOCC3)nc2-c2ccccc2)cc1 | 1 | 0.073
CC(C)(C)c1ccc2c(c1)N(CC(=O)NCCN1CCN(c3ccccc3F)CC1)C(=O)CO2 | 1 | -0.048
COc1ccc(-c2nnc(Nc3ccc4c(c3)ncn4-c3ccc(C)cc3)c3ccccc23)cc1 | 0.99 | -0.2

# Source: PubChem
